StopGo reporter: High Throughput Screening for Foot and Mouth Disease Virus Antivirals | hit rate 1.2% among 410,000 | AID 1159524, 2015 | Potency, µM (series often up to 57.9 µM), inactives show at the highest dose signal change, negative = less light | human cells with a luciferase reporter of 2A StopGo recoding; control for the full effect not named in the record; active = well fitted falling curve with a large enough effect; inconclusive = small, poorly fitted or top-dose-only effect; inactive = no such curve, though single readings can be large or run the other way; tested in HEK293T cells; also: nearly all actives have a fitted effect of over 45% in size; luciferase light after 4 h
RE007 growth inh: qHTS Assay for Inhibitors of the HIV-1 protein Vpr. S. pombe RE007 Vpr strain, BacTiter-Glo ATP luminescence, 24 h; control for the full effect not named in the record. Potency, µM (top dose mostly 92.2 µM), inactives show at the highest dose activity change, negative = less growth. hit rate 0.21% among 360,000; active = well fitted falling curve with a large enough effect; inconclusive = small, poorly fitted or top-dose-only effect; inactive = no such curve, though single readings can be large or run the other way;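 also: nearly all actives have a fitted effect of over 50% in size; the assay follows cell death caused by Vpr and the record does not say whether a fall means rescue or toxicity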
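Fission yeast RE007 carrying one integrated HIV-1 vpr copy, seeded at OD 0.01 in PMG+AL medium with 23 nL pinned compound. Grown 24 h at 30 degrees; viability read by BacTiter-Glo luminescence after 5 min.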
* marks the source's active call; other numbers are inactive results; ? = inconclusive; [ ] = another dose, or the depositor's remark. % is scaled to controls: 0 for no effect and ±100 for the full control effect; potency is read from the fitted curve at half-maximal effect. These rows are one share of the data; rates above refer to the full screens.

The line under a structure holds: StopGo reporter, RE007 growth inh
1. Nc1ccc(CNC(=O)OCC2c3ccccc3-c3ccccc32)cc1
  13%, -7%
2. COc1ccc(Nc2c(CC(C)C)nc3nc(C)cc(C)n23)cc1
  -2%, ?
3. C[C@H](CO)N1C[C@H](C)[C@@H](CN(C)Cc2ccncc2)Oc2ncc(Br)cc2C1=O
  -16%, -8%
4. O=C(Cc1cccc2ccccc12)NN=Cc1ccc2c(c1)CCC2
  -11%, -13%
5. CC1(C(=O)NS(=O)(=O)c2ccc(Br)cc2)CCN1C(=O)CCc1cccs1 (stereo not drawn)
  2%, 2%
6. COc1ccc(C(NC(=O)C2CCN(C/C=C/c3ccc(OC(C)=O)c(OC)c3)CC2)c2ccccn2)cc1 (stereo not drawn)
  -12%, -12%[18.4 µM]
7. CC(C)(C)n1nnnc1C(CCc1ccccc1)N1CCN(C/C=C/c2ccccc2)CC1 (stereo not drawn)
  ?, -11%
8. N#CC(Cc1cccs1)c1nc2ccccc2[nH]1 (stereo not drawn)
  40%[activator], 1%
9. CCc1nc2c(OCCn3cccc3)cccn2c1N(C)C(=O)c1cccs1
  -27%, -7%
10. CC(C)Nc1ncnc2c1ncn2[C@H]1CN(Cc2cccnc2)C[C@@H](CO)O1
  5%, -4%
11. CN(C)C(=O)c1ccc(NC(=O)c2cccc(-n3cnnn3)c2)cc1
  -5%, -19%
12. C=C1C(=O)[C@]23C[C@H]1CC[C@H]2[C@]1(C)[C@@H](OC(C)=O)CC[C@@](C)(C(=O)OC)[C@H]1C[C@@H]3OC(C)=O
  11µM*, -14%
13. COc1ccc(CCNC(=O)c2ccc3c(c2)S(=O)(=O)N=C2CCCCCN23)cc1OC
  -13%, -11%
14. C=CCNC(=O)c1ccc2c(c1)S(=O)(=O)c1ccccc1C2=O
  -4%, -12%
15. COCc1cccc(-c2csc(C(C)(O)c3ccccc3)n2)c1 (stereo not drawn)
  0%, 8%
16. CCN1/C(=C/C=C/c2sc3ccccc3[n+]2CC)Sc2ccccc21
  14µM*, ?
17. CCCCNC(=O)C1(C)CCN1C(=O)c1ccc2c(c1)CCO2 (stereo not drawn)
  -12%, 7%
18. O=C(COc1ccc(F)cc1Br)Nc1ccccc1N1CCCC1
  ?, 22%
19. CCN(CCc1ccccc1)c1ccc2c(c1)C1CC2CCN1C(=O)OCc1ccccc1 (stereo not drawn)
  -20%, -6%
20. c1ccc(CN=C2CCCc3ccccc3N2)cc1
  -28%, -24%
21. CC1(C(=O)NCc2ccco2)Cc2c(-c3ccccc3)ccnc2O1 (stereo not drawn)
  0%, 3%
22. C[C@@H]1CN([C@@H](C)CO)C(=O)CCCn2cc(nn2)CO[C@H]1CN(C)C(=O)OCc1ccccc1
  0%, 12%
23. CCc1c(-c2ccc(Cl)cc2)ncn1Cc1cccc(-c2ccccc2)c1
  ?, -3%
24. O=C(NCc1cccc(C(F)(F)F)c1)c1csc(COCCO)n1
  -13%, 1%
25. COc1ccc([C@@H]2C[C@H]3[C@@H](CN2S(=O)(=O)c2ccccc2)C(=O)C[C@@H](c2ccc(C)cc2)N3S(=O)(=O)c2ccc(C)cc2)cc1
  -19%, 16%
26. Cc1ccc(Cc2c(-c3ccc(F)cc3)nc3c(C)cc(Br)cn23)cc1
  -27%, 3%
27. Cc1c(C(=O)NCc2cccc(C(F)(F)F)c2)sc(=O)n1Cc1ccc(C(=O)N(C)C)cc1
  ?, 9%[18.4 µM]
28. CC(=O)N1CCC(C(=O)Nc2cc(S(=O)(=O)N3CCCCC3)ccc2C)CC1
  -4%, 6%
29. CC(C)(C)C(=O)N1Cc2cc(N3CCOCC3)ccc2-n2nncc2C1
  -4%, 0%
30. C[C@@H]1CCCCO[C@@H](CN(C)C(=O)CCCN(C)C)[C@@H](C)CN([C@H](C)CO)C(=O)c2cc(NC(=O)CCC(F)(F)F)ccc2O1
  9%, 23%

Continued; it opens with the 5 that closed the last part.
The line under a structure holds: StopGo reporter, RE007 growth inh
26. Cc1ccc(Cc2c(-c3ccc(F)cc3)nc3c(C)cc(Br)cn23)cc1
  -27%, 3%
27. Cc1c(C(=O)NCc2cccc(C(F)(F)F)c2)sc(=O)n1Cc1ccc(C(=O)N(C)C)cc1
  ?, 9%[18.4 µM]
28. CC(=O)N1CCC(C(=O)Nc2cc(S(=O)(=O)N3CCCCC3)ccc2C)CC1
  -4%, 6%
29. CC(C)(C)C(=O)N1Cc2cc(N3CCOCC3)ccc2-n2nncc2C1
  -4%, 0%
30. C[C@@H]1CCCCO[C@@H](CN(C)C(=O)CCCN(C)C)[C@@H](C)CN([C@H](C)CO)C(=O)c2cc(NC(=O)CCC(F)(F)F)ccc2O1
  9%, 23%
31. CCOC(=O)C1=C[C@@H](CC)N(S(=O)(=O)c2ccc(C)cc2)[C@H]1c1cccs1
  ?, 5%
32. CCOC(=O)[C@@H]1[C@H]2COc3ccccc3[C@@H]2N2C(=O)N(c3ccc(C(F)(F)F)cc3)C(=O)[C@]12C
  -10%, 7%
33. CNc1nc(NCCOc2ccccc2Cl)c2sccc2n1
  ?, -11%
34. O=C(OCc1cn([C@H]2C[C@H](c3ccc(Cl)cc3)N(C(=O)C3CCCCC3)C[C@@H]2O)nn1)c1ccccc1
  16%, 8%
35. CCCCN(C=O)c1c(CC)nc2ccc(C(=O)N3CCN(C(=O)c4ccco4)CC3)cn12
  -1%, 5%
36. O=C(Cc1cccc(NC(=O)C2CCCN(C(=O)c3ccccc3)C2)c1)Nc1ccc(C(=O)N2CCCCC2)cc1 (stereo not drawn)
  -5%, 71%
37. CC(C)(C)C(=O)c1c(N)[nH]c(C(=O)c2ccccc2)c1-c1ccc(Br)cc1
  -24%, 0%
38. O=C(c1cccc(C(F)(F)F)c1)N1CCC(=O)N(C(CO)Cc2ccccc2)CC1 (stereo not drawn)
  -13%, -7%
39. CCCCN(C)C(=O)c1sc(=O)n(Cc2cc(Cl)ccc2OC)c1C
  -6%, 2%[18.4 µM]
40. CCOC(=O)C1(C)CCN1C(=O)COc1ccccc1 (stereo not drawn)
  -8%, 3%[18.4 µM]
41. O=C(NC1CCCCC1)C1c2ccccc2OCC(=O)N1CCCN1CCOCC1 (stereo not drawn)
  -9%, 2%
42. COc1ccccc1Cn1c(=S)[nH]c2cc(C(=O)N3CC(C)CC(C)C3)ccc2c1=O (stereo not drawn)
  ?, -8%
43. CC(C)(C)c1ccc(S(=O)(=O)NC(=O)C2(C)CCN2C(=O)CC2CCCCC2)cc1 (stereo not drawn)
  2%, 7%[18.4 µM]
44. CCC(C(=O)NC(C)(C)C)n1c(C(c2ccccc2)c2ccccc2)nc2ccccc21 (stereo not drawn)
  -17%, -15%
45. Cc1ccc([C@H]2N[C@]3(CCCN(Cc4cccn4C)C3=O)[C@H]3C(=O)N(Cc4ccccc4)C(=O)[C@@H]23)cc1
  -21%, -17%
46. O=C(C[C@H]1C[C@@H]2c3cc(NC(=O)Nc4ccccc4)ccc3O[C@@H]2[C@@H](CO)O1)NCC1CC1
  -20%, 7%
47. O=C1Nc2ccccc2-n2nnnc2C1N1CCN(c2ccc(C(F)(F)F)cc2[N+](=O)[O-])CC1 (stereo not drawn)
  ?, 0%
48. CCc1nc2ccc(C(=O)N3CCC(O)(Cc4ccccc4)CC3)cn2c1N(C)C(=O)Cc1ccccc1
  -10%, 1%
49. CCCS(=O)(=O)NC(=O)C1(C)CCN(C(=O)c2ccc3ccccc3n2)C1 (stereo not drawn)
  -6%, 18%
50. O=S(=O)(Cc1nnnn1-c1ccc(Br)cc1)c1ccccc1
  -12%, -15%
51. CS(=O)(=O)N(CC(=O)N1CCCC1)c1ccc(F)cc1
  -18%, -22%
52. COc1ncnc2c1ncn2CCCN(C)CCc1ccccn1
  -22%, 4%
53. Cc1ccc(Cn2c(C3CCCN3c3nc(C)cs3)nc3cc(C(=O)NCCCO)ccc32)cc1 (stereo not drawn)
  -12%, -2%
54. Cc1c(C(=O)NCc2ccc(F)cc2)sc(=O)n1Cc1ccc(Cl)c(Cl)c1
  ?, -1%[18.4 µM]
55. CC(C)C[C@H]1CNC(=S)N1CC1CCCN1C[C@H](CC(C)C)N1C[C@H](Cc2ccc(O)cc2)N(CC2CCCCCC2)C1=S (stereo partly drawn)
  ?, 1%
56. CC1(C)Cc2c(sc(NC(=O)Cc3ccccc3)c2C#N)C(C)(C)N1
  -20%, 3%
57. COc1ccc(F)cc1-c1cc(C(=O)NCc2cc(C(F)(F)F)cc(C(F)(F)F)c2)[nH]n1
  -18%, 12%
58. O=c1[nH][nH]c2c1[C@H](c1ccc(F)cc1)O[C@H](C1CCCCC1)C2
  -17%, 1%
59. O=C(CNc1cccc(S(=O)(=O)N2CCCCC2)c1)Nc1ccc(C(F)(F)F)cc1
  ?, 9%
60. CCOC(=O)Cn1nc2oc(=O)c(CCN3CCN(c4ccccc4OC)CC3)c(C)c2c1C
  -29%, -12%

The line under a structure holds: StopGo reporter, RE007 growth inh
61. Cc1cccc(C)c1NC(=O)C1(C)CN(S(C)(=O)=O)CC(=O)N1CCc1ccccc1F (stereo not drawn)
  -6%, -15%
62. CCCCCCNC(=O)O[C@]12C[C@@H](C(=O)OC)[C@@H](C(=O)OC)C[C@@]1(O)CN(S(=O)(=O)c1ccc(C)cc1)C2
  -5%, -7%
63. Cc1noc(NS(=O)(=O)c2ccc(NS(=O)(=O)c3ccc(C(C)(C)C)cc3)cc2)c1C
  -24%, -3%
64. C/C=C/c1cccc(-c2nc(C(=O)N3CCOCC3)cc3c2[C@@H](CCO)N(C(=O)NC(C)C)C3)c1
  -13%, 1%
65. O=c1[nH]c2ccc(Br)cc2c(=O)o1
  -27%, 1%
66. C[C@H](CO)N1C[C@H](C)[C@@H](CN(C)S(=O)(=O)c2ccccc2F)Oc2ncc(C#Cc3cccnc3)cc2C1=O
  -24%, -4%
67. CN1CCCC1=Nc1ccccc1
  0%, -3%
68. Cn1cc(-c2ccc3c(c2)OCO3)c2ccccc21
  26%, 2%[18.4 µM]
69. OC[C@@H]1CN(Cc2ccc(F)cc2)C[C@H](n2cnc3c(NC4CC4)ncnc32)O1
  -6%, 14%
70. CC(=O)CC(c1ccc2c(c1)OCO2)c1c(O)c2ccccc2oc1=O (stereo not drawn)
  1%, 11%
71. CC(C)C[C@@H](CN1CCCC1CN1C(=S)NC[C@@H]1Cc1ccc(O)cc1)N1C[C@H](Cc2ccc(O)cc2)N(CC2CCCCCC2)C1=S (stereo partly drawn)
  ?, 11%
72. Nc1ccn([C@@H]2O[C@H](C(=O)Nc3ccc(C(=O)N4CCCCC4)cc3)[C@@H](O)[C@H]2O)c(=O)n1
  -11%, 7%
73. CCn1cc(/C=C(\NC(=O)c2ccccc2)C(=O)NCCN2CCOCC2)c2ccccc21
  0%, -19%
74. COc1cccc(-c2cc(NC=O)c3ncc(-c4ccc(OC)c(OC)c4)n3c2)c1
  -27%, 15%
75. CC(C)Oc1ccc(S(=O)(=O)N2CCOCC2)cc1NC(=O)CC1CC2CCC1C2 (stereo not drawn)
  -2%, 16%
76. COc1ccc(NC(=O)C2Cc3c(-c4cccc(C(C)=O)c4)ccnc3O2)cc1 (stereo not drawn)
  -20%, -5%
77. COC(=O)[C@]12CCCCC=C1N(CCC1=CCCCC1)C(=O)[C@H](CC(=O)N1CCN(C(=O)c3ccco3)CC1)C2
  -30%, -5%
78. Cc1ccc(F)cc1C(=O)N1CCCC(C)(C(=O)NS(=O)(=O)C2CC2)C1 (stereo not drawn)
  -17%, 8%
79. CCO[C@@H]1OC(C(=O)NC2CC2)=C[C@H](c2coc3ccccc3c2=O)[C@H]1CCCO
  -18%, 131%
80. Cc1cccc(C)c1NC(=O)C1(C)CCC(=O)N1CCc1c[nH]c2ccccc12 (stereo not drawn)
  -12%, -3%
81. O=C(NC(=S)Nc1ccc([N+](=O)[O-])cc1)c1ccco1
  61%[activator], 3%
82. COC(=O)C1=C(c2cc3ccccc3s2)C[C@@H]2CC[C@H]1N2C(=O)N1CCC(O)CC1
  -13%, 6%
83. Cc1ccc2ccc(C#N)cc2c1O
  -2%, -15%
84. CC(C)NC(=O)C1(C)CCCN1Cc1csc2ccccc12 (stereo not drawn)
  -20%, -4%[18.4 µM]
85. C(/C=C/c1ccccn1)=C\c1ccccc1
  -13%, -24%
86. Cc1ccccc1C(=O)N1CCC(C(=O)Nc2ccc(S(=O)(=O)N3C(C)CCCC3C)cc2)CC1 (stereo not drawn)
  -4%, 8%
87. CCCS(=O)(=O)NC(=O)C1(C)CCN(C(=O)c2ccccc2F)C1 (stereo not drawn)
  -7%, 1%
88. O=C1CCCC2=C1CC(C(=O)OCc1ccccc1)C(=O)N2Cc1ccccc1 (stereo not drawn)
  -21%, -6%
89. CCOC(=O)C1CCCN(C(=O)c2cccs2)CC1 (stereo not drawn)
  -6%, 4%[18.4 µM]
90. COc1ccc(C(C(=O)Nc2ccc(F)cc2)N2CCN(C(=O)c3ccco3)CC2)cc1 (stereo not drawn)
  -15%, -11%

The line under a structure holds: StopGo reporter, RE007 growth inh
91. C[C@@H]1CN([C@@H](C)CO)C(=O)c2cc(Br)cnc2O[C@@H]1CN(C)C(=O)C1CCCCC1
  -5%, -9%
92. COc1ccc(CN(C)C[C@H]2OCCCC[C@@H](C)Oc3ccc(NC(=O)c4ccccc4)cc3C(=O)N([C@H](C)CO)C[C@@H]2C)cc1
  -5%, 1%
93. C#Cc1ccc(NC(=O)C2(C)CCN2C(=O)Cc2ccc(-c3ccccc3)cc2)cc1 (stereo not drawn)
  ?, -3%[18.4 µM]
94. O=C(Cc1cccc(NC(=O)C2CCN(C(=O)C3CC3)CC2)c1)Nc1cccc(C(=O)N2CCCCC2)c1
  -17%, -5%

Bioassay records deposited in PubChem BioAssay by National Center for Advancing Translational Sciences (NCATS).
